2A StopGo: High Throughput Screening for Foot and Mouth Disease Virus Antivirals; human cells with a luciferase reporter of 2A StopGo recoding; control for the full effect not named in the record; Potency, µM (titrated, usually from 57.9 µM), without a hit: top-dose signal change, negative = less light; actives 1.2% (n = 410,000); AID 1159524, 2015; active = well fitted falling curve with a large enough effect; inconclusive = small, poorly fitted or top-dose-only effect; inactive = no such curve, though single readings can be large or run the other way; tested in HEK293T cells; note: nearly all actives have a fitted effect of over 45% in size; luciferase light after 4 h
Numbers without * were called inactive; ? = inconclusive; & = joins results of further samples; [ ] = another dose, or the depositor's remark. % is set by controls: 0 for no effect and ±100 for the full control effect; potency is the fitted concentration of half-maximal effect. An excerpt; rates above refer to the full screens.

SMILES	2A StopGo
CCOC(=O)N1CCN(Cc2ccc3c(c2)CN(C(=O)c2ccc4ncccc4c2)CCO3)CC1	28µM*
Cc1ncsc1CCC(=O)N1CCCC(c2nc(-c3ccncc3)ncc2-c2ccccc2)C1 (stereo not drawn)	?
C[C@H](NC(=O)[C@@H](N)Cc1ccc(O)cc1)C(=O)N[C@@H](Cc1ccccc1)C(=O)NCC(=O)N[C@@H](Cc1ccc(O)cc1)C(=O)N1CCC[C@H]1C(=O)N[C@@H](CO)C(N)=O	-15%[6.7 µM]
CSc1nc(C(=O)NCc2nc(-c3cccc(NC(=O)c4ccccn4)c3)oc2C)cs1	14%
Cc1nc(N=Nc2cc([N+](=O)[O-])ccc2Cl)c(COP(=O)(O)O)c(C=O)c1O	9%
COc1cc(-c2cnc3ccccc3c2)cc2c1OCCN(C(=O)CCC(=O)c1ccc(F)cc1)C2	-12%
O=C1NC(CC(=O)N2CCC(n3c(C4CCC4)nc4cccnc43)CC2)c2ccccc21 (stereo not drawn)	-3%
CCN(CC)CCCCN1c2ccccc2Oc2ccc(Cl)cc21	-24%
CC(N)(COP(=O)(O)Oc1ccccc1)C(=O)O (stereo not drawn)	-9%
O=C(NCC1CCC2(CCN(Cc3ccccc3O)CC2)O1)C1CCCO1 (stereo not drawn)	-8%
CC(C)(C)c1ccc(C(=O)N2CCC3(CC2)CC3C(=O)NCCc2ccccn2)cc1 (stereo not drawn)	26%
CCc1cc(C(=O)NCC2Cc3cccc(-c4ccc(C(=O)OC)cn4)c3O2)no1 (stereo not drawn)	-5%
COc1ccc2ccccc2c1CN1CCC2(CCC(CNC(=O)c3ccccc3)O2)CC1 (stereo not drawn)	-18%
CCC1CN(CCC(=O)N2CCCN(C(=O)c3ccco3)CC2)Cc2cc(OC)ccc2O1 (stereo not drawn)	-11%
COCc1ccc(C(=O)N2CCOc3c(cc(-c4cc(C)c5cccc(OC)c5n4)cc3OC)C2)o1	-5%

Retrieved by structure from above:
SMILES	2A StopGo
CC(C)(C)c1ccc(C(=O)N2CCC3(CC2)CC3C(=O)NCCc2ccccn2)cc1 (stereo not drawn)	26%
COc1cc(-c2cnc3ccccc3c2)cc2c1OCCN(C(=O)CCC(=O)c1ccc(F)cc1)C2	-12%
CSc1nc(C(=O)NCc2nc(-c3cccc(NC(=O)c4ccccn4)c3)oc2C)cs1	14%
Cc1ncsc1CCC(=O)N1CCCC(c2nc(-c3ccncc3)ncc2-c2ccccc2)C1 (stereo not drawn)	?
O=C1NC(CC(=O)N2CCC(n3c(C4CCC4)nc4cccnc43)CC2)c2ccccc21 (stereo not drawn)	-3%

(cont.)
SMILES	2A StopGo
O=C(Nc1cccc(N2CCC(NCc3cnn(-c4ccccc4)n3)CC2)c1)c1cccnc1	-16%
CC[C@@H](C)CCCCC(=O)N[C@@H](CCNCS(=O)(=O)O)C(=O)N[C@H](C(=O)N[C@@H](CCNCS(=O)(=O)O)C(=O)N[C@H]1CCNC(=O)[C@H]([C@@H](C)O)NC(=O)[C@H](CCNCS(=O)(=O)O)NC(=O)[C@H](CCNCS(=O)(=O)O)NC(=O)[C@H](CC(C)C)NC(=O)[C@@H](CC(C)C)NC(=O)[C@H](CCNCS(=O)(=O)O)NC1=O)[C@@H](C)O	-2%
COc1ccc(CN2CCCC(n3cc(C(=O)N4CCCCC4)nn3)C2)cc1OC (stereo not drawn)	13%
COc1cc(=O)n2c(c1C(=O)N(C)Cc1ccsc1)CCN(Cc1cnn(C)c1C)CC2	7%
NCCC[C@H](N)CC(=O)N[C@H]1CNC(=O)[C@H]([C@H]2C[C@H](O)N=C(N)N2)NC(=O)C(=CNC(N)=O)NC(=O)[C@H](CO)NC(=O)[C@H](CO)NC1=O	-14%[16.9 µM]
Cc1ccc(-c2ccnc(-n3ncc(C(=O)NC[C@@H]4CCCN5CCCC[C@H]45)c3C3CC3)n2)o1	-11%
CC(=O)Nc1ccccc1-c1nc(CNC(=O)c2cc(C)ccc2C)c(C)o1	-8%
CC(C)C(NS(C)(=O)=O)c1nnc2n1CCN(Cc1ccc3cccnc3c1)CC2 (stereo not drawn)	9%
COc1ccccc1-c1ccnc(-n2ncc(C(=O)NC3CCCN(Cc4ccccc4)C3)c2C)n1 (stereo not drawn)	1%
CCc1nc2cc(C(=O)NC3CCS(=O)(=O)C3)cc(NC(=O)c3ccccc3OC)c2n1C (stereo not drawn)	-11%
Cc1oc(-c2ccccc2NC(=O)c2ccccc2)nc1CNC(=O)C1CC(=O)OC12CCCCC2 (stereo not drawn)	15%
CNCC(N)C(=O)O (stereo not drawn)	-13%
Cc1c(C(=O)NCc2cccc(F)c2)sc2ncnc(NCC3CCCO3)c12 (stereo not drawn)	-9%
O=C(Cn1cc2ccccc2n1)N1CCOc2ccc(C(O)C3CCCCC3)cc2C1 (stereo not drawn)	-13%
O=C(NC1CC1)[C@@H]1C[C@H](Sc2nc3ccccc3[nH]2)CN1CC1CCCCC1	-9%
COCC(=O)Nc1cc(C(=O)N2CCCCC2c2nccs2)c2c(c1)nc(-c1ccncc1)n2C (stereo not drawn)	-9%
COc1ccc(CN2CCCC(n3cc(C(=O)N4CCCCC4)nn3)C2)c(OC)c1 (stereo not drawn)	-9%
COc1ccc2c(c1)CCc1cnc(-n3ncc(C(=O)NC4CCOC4)c3C3CC3)nc1-2 (stereo not drawn)	-5%
Cc1ccc(-c2ccnc(-n3ncc(C(=O)N(C)Cc4cccc5ncccc45)c3C3CC3)n2)o1	-1%
Cc1ccccc1-n1cc(CNC(=O)CN2Cc3ccccc3OC(C)C2)cn1 (stereo not drawn)	-6%
Cc1nc2ccccc2nc1CN1CCOc2ccc(C(C)(O)COc3ccccc3)cc2C1 (stereo not drawn)	3%
COC(=O)c1cc(CNC(=O)c2ccc(N(C)C)cc2)cc(NC(=O)c2ccccc2Cl)c1	3%
CSc1nnc(CCNC(=O)/C=C/c2cccc(F)c2)n1-c1ccc(F)cc1	-15%
CC(=O)c1ccc(-c2ccc3c4c(ccc3c2)OC(CNC(=O)C(C)N2CCOCC2)C4)s1 (stereo not drawn)	2%
Cc1nc(C)c(CC(=O)N2CCOc3ccc(CN4CCOCC4)cc3C2)s1	-9%
O=C(NCC1(N2CCOCC2)CCCC1)c1cnn(-c2nccc(-c3cccs3)n2)c1C1CC1	-4%
Cn1cnnc1Sc1ccc(CN2CCOc3ccc(C4=Cc5ccccc5C4)cc3C2)o1	30%[activator]
CC(O)(COc1ccccc1)c1ccc2c(c1)CN(Cc1ccccn1)CCO2 (stereo not drawn)	-4%
CC(=O)Nc1cc(C(=O)N2CCN(c3ccccc3)CC2C)cc2ncn(CCc3ccccn3)c12 (stereo not drawn)	0%
COC(=O)C1CCCCN1Cc1ccc2c(c1)CN(C(=O)c1ccc(C)s1)CCO2 (stereo not drawn)	0%
CCN1CCCC1CNCc1cc2c(OC)c(OC)c(OC)cc2nc1N(C)C (stereo not drawn)	-15%
CC(C)C(NS(C)(=O)=O)c1nnc2n1CCN(Cc1ccc(Cl)cc1)CC2 (stereo not drawn)	-10%
Cc1cc(-c2ccnc(-n3ncc(C(=O)NCc4cccnc4)c3C3CC3)n2)c(C)s1	-12%
Cc1ccc2c(c1)CN(CCNC(=O)c1n[nH]c3c1CCCC3)CC(C)O2 (stereo not drawn)	3%
Cc1ccc2c(c1)CN(CCNC(=O)c1cc3ccccc3oc1=O)CC(C)O2 (stereo not drawn)	0%
CN(C)C(=O)OC1=C(c2ccccc2)Sc2ccccc2-n2cccc21	-11%
O=C(c1cnn(-c2nccc(-c3ccccc3C(F)(F)F)n2)c1C1CC1)N1CCN(CCO)CC1	-7%
Cc1cnc(C)c(-c2cc(F)cc3c2OC(CNC(=O)Cc2ccccc2C)C3)n1 (stereo not drawn)	-8%
CCn1nc(C)cc1C(=O)NCCN1Cc2ccccc2OC(c2ccccc2F)C1 (stereo not drawn)	?
O=C(O)c1cc(Oc2ccc([N+](=O)[O-])cc2)cc(Oc2ccc([N+](=O)[O-])cc2)c1	0%
CNC(=O)[C@@H]1C[C@@H](NCc2cccc(Oc3ccccc3)c2)CN1C(C)C	-13%
COc1cccc(C(=O)NCc2nc(-c3cccc(NC(=O)c4ccoc4C)c3)oc2C)c1OC	20µM*
Cc1ccc(Sc2cncc3sc(C(N)=O)cc23)cc1	19%
Cc1ccsc1C(=O)N(Cc1cc2ccc(F)cc2nc1N1CCC(O)CC1)CC1CCCO1 (stereo not drawn)	0%
CCCS(=O)(=O)NCc1c(C)ncc2c1CCN(C(=O)c1cccc(C(F)(F)F)c1)C2	-16%
Cc1[nH]c2c(C(=O)NCC3Cc4cccc(-c5cccnc5)c4O3)cccc2c1C (stereo not drawn)	12%
CC(C)(O)C1O[C@H]2CC[C@@]3(C)[C@@](O)(CC[C@H]4Cc5c([nH]c6ccccc56)[C@@]43C)C2=CC1=O (stereo partly drawn)	-13%&-17%&-5%
COC(=O)c1c(OCc2cccnc2)cc(=O)n2c1CCN(Cc1cc3c(cc1Cl)OCO3)CC2	?
CC(=O)N(C)CC#CCN1CCC(O)CC1	-5%
Cc1cc(C(=O)NCc2nc(-c3ccccc3NC(=O)C3CCCO3)oc2C)nc(C)n1 (stereo not drawn)	-3%
COc1ccccc1CN1CCOc2ccc(C(C)(O)CN(C)C)cc2C1 (stereo not drawn)	-17%
COC(=O)c1ccccc1C(=O)NCc1nc(N2CCCC2)c2cccc(C)c2n1	-14%
NC(=O)C1CCCN(Cc2ccc3c(c2)CN(Cc2ccccc2)CCO3)C1 (stereo not drawn)	2%
O=C(NC1CCCCC1)c1cn(CCN2CCOCC2)c2cc(Cl)ccc2c1=O	-6%
COc1ccc(OC)c(-c2cc(Cl)c3c(c2)CC(CNC(=O)c2coc4c2C(=O)CCC4)O3)c1 (stereo not drawn)	18%
COc1ccc(C2Nc3cccc(O)c3C(=O)N2Cc2ccccc2)cc1COc1ccc(NC(C)=O)cc1 (stereo not drawn)	-9%
COC(=O)C1CCN(Cc2ccc3c(c2)CN(C(=O)C2CCCN(c4ccccn4)C2)CCO3)CC1 (stereo not drawn)	-15%
O=C(c1n[nH]c2c1CCCC2)N1CCOc2ccc(C(O)C3CCCCC3)cc2C1 (stereo not drawn)	-12%
COC(=O)c1cccc(-c2cc(Cl)c3c(c2)CC(CNC(=O)c2cccnc2)O3)c1 (stereo not drawn)	-16%
COc1ccc(NC(=O)C2CC23CCN(Cc2cccc4ncccc24)CC3)cc1Cl (stereo not drawn)	-18%

The list goes on.
SMILES	2A StopGo
CO[C@H]1[C@H](NC(=O)c2cccs2)c2ccccc2C12CCN(Cc1cccn1-c1cccnc1)CC2	-8%
COc1cccc(CN2C(=O)NC(C)(C3CCN(Cc4ccc(C)o4)CC3)C2=O)c1OC (stereo not drawn)	-17%
O=C(CCc1nc2ccccc2s1)N1CCOc2ccc(CN3CCc4sccc4C3)cc2C1	2%
CO[C@H]1[C@H](NC(=O)C(C)C)c2ccccc2C12CCN(Cc1c(C)nn(C)c1Cl)CC2	9%
COc1cccc2ccc(CN3CCC4(CC3)c3ccccc3[C@@H](NC(=O)c3ccccc3)[C@@H]4O)nc12	-1%
Cc1c(C(=O)N(C)Cc2cscn2)sc2ncnc(NC[C@H]3CCc4ccccc4O3)c12	-12%
COc1cc(=O)n2c(c1C(=O)NC(C)c1ccco1)CCN(Cc1ccccc1Cl)CC2 (stereo not drawn)	-6%
OC(c1cccnc1)c1ccc2c(c1)CN(Cc1ccc(-c3ccccc3Cl)o1)CCO2 (stereo not drawn)	2%
Cc1cc(-c2ccnc(-n3ncc(C(=O)N(C)CC(O)c4ccccc4)c3C)n2)c(C)s1 (stereo not drawn)	36%[activator]
OCCNc1nc(Nc2cc(Cl)ccc2OC2CCCC2)nc(N2CCCC2)n1	-2%
COCCN(C)C(=O)c1cnn(-c2nccc(-c3cc(C)sc3C)n2)c1C	44%[activator]
CNCC(=O)NCC(=O)N[C@@H](Cc1ccccc1)C(=O)N[C@@H](CC(C)C)C(=O)O	-8%[6.7 µM]
COc1ccc2[nH]cc(CCO)c2c1	-4%
CC[C@H](C)[C@H]1O[C@]2(C=C[C@@H]1C)C[C@@H]1C[C@@H](C/C=C(\C)[C@@H](O[C@H]3C[C@H](OC)[C@@H](O[C@H]4C[C@H](OC)[C@@H](O)[C@H](C)O4)[C@H](C)O3)[C@@H](C)/C=C/C=C3\CO[C@@H]4[C@H](O)C(C)=C[C@@H](C(=O)O1)[C@]34O)O2	0%
CCC(O)CNC(=O)c1cnn(-c2ncc3c(n2)-c2ccc(OC)cc2CC3)c1C1CC1 (stereo not drawn)	41%[activator]

Part of the list above, with each value named.
OCCNc1nc(Nc2cc(Cl)ccc2OC2CCCC2)nc(N2CCCC2)n1
  2A StopGo: -2%
CO[C@H]1[C@H](NC(=O)c2cccs2)c2ccccc2C12CCN(Cc1cccn1-c1cccnc1)CC2
  2A StopGo: -8%
COc1cc(=O)n2c(c1C(=O)NC(C)c1ccco1)CCN(Cc1ccccc1Cl)CC2 (stereo not drawn)
  2A StopGo: -6%
CCC(O)CNC(=O)c1cnn(-c2ncc3c(n2)-c2ccc(OC)cc2CC3)c1C1CC1 (stereo not drawn)
  2A StopGo: 41%[activator]

Further entries follow:
SMILES	2A StopGo
COc1ccccc1C1CN(Cc2cccc(OCCO)c2)Cc2ccccc2O1 (stereo not drawn)	0%
CC1(C)c2[nH]c3ccccc3c2C[C@H]2C(=O)N(Cc3ccc(F)cc3)C(=O)N21	?
CC(C)(Cc1c[nH]c2ccccc12)NCC(O)COc1ccccc1C#N (stereo not drawn)	-20%
O=C(N[C@@H]1c2ccccc2C2(CCN(Cc3c(O)ccc4ccccc34)CC2)[C@H]1O)c1ccccc1	13%
N#Cc1ccccc1OCC(O)CNCCNC(=O)Nc1ccccc1 (stereo not drawn)	-1%

Screens (PubChem)
